MT1-MMP act inh: blocks activation of human MT1-MMP; HT1080 RFP-PRO-GFP cells, GFP/RFP ratio fluorescence, overnight; percent of plate control window, DMSO zero; GFP/RFP ratio change, % at 20 µM; hit rate 0.061% among 360,000;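 active means GFP/RFP ratio change of at least 30% with cell ATP level not reduced by more than half and red fluorescence within 50% of control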; further: strong numbers were not always called active
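Compound: 20 µM single dose, 1% DMSO / System: HT1080 RFP-PRO-GFP cells / Controls: DMSO and RFP-L50D-GFP cell wells / Read-out basis: GFP/RFP fluorescence ratio / Schedule: overnight compound exposure at 37 °C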
Rce1 inhib: yeast Ras-converting enzyme inhibition. Q03530. yeast membranes, quenched prenylated peptide cleavage fluorescence. calls only. hit rate 0.27% among 290,000;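 active means fall in fluorescence gain of 50% or more versus controls, with final raw signal at or below 3038400; inconclusive means same 50% fall but final raw signal above 3038400; inactive means fall in fluorescence gain under 50%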;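 further: plate controls were neutral control wells for no effect and wells lacking membranes for full effect; tested at 10 µM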
Target sequence (Q03530 whole entry, looked up): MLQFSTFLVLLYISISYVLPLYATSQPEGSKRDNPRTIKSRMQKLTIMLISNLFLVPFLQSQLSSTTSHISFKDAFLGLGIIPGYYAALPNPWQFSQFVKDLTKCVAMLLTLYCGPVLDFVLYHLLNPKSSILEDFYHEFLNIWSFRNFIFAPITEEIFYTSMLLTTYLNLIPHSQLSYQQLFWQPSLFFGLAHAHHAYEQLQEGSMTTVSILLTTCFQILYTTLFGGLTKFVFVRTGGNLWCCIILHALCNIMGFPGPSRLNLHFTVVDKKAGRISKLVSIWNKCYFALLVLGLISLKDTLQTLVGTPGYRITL
Env fusion inh: inhibitors of HIV Env-mediated cell fusion; HeLa-JRFL Env/CEM21 cell fusion, luciferase; inhibition, % at 12.3 µM; hit rate 1.1% among 360,000; AID 651610;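 active means mean replicate inhibition score of at least 50 and every replicate individually at or above 50; inconclusive means only one of the two criteria met; inactive means mean below 50 and not all replicates reaching 50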;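 further: 0% = plate neutral controls and 100% = maraviroc near 300 nM; one replicate is shown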
CSC inhib: blocks cancer stem cells. hit rate 1.1% among 300,000. AID 2717. inhibition, % at 7.5 µM. cancer stem cell-like cells viability, luminescence;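 active means mean at 75% or more and at least half the replicates too; inconclusive means mean and replicates disagree; tested in HMLE shEcad cells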;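 further: 0% = median of negative and 100% = median of positive control wells; the first replicate is given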
PABP polyA inh: PABP-poly(A) binding inhibition; P11940; PABP-poly(A) RNA binding, fluorescence polarization; inhibition, % at 35 µM; hit rate 1% among 290,000;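 active means 50% or more with normal probe brightness, or confirmed in later tests; inconclusive means above 50% with abnormal brightness, or retests that disagree; inactive means below 50% or failed in later tests; about a fifth of its hits are not listed in these tables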;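 further: calls also rest on retests at 20 µM and on dose response follow-up; controls were probe without protein and protein plus probe with vehicle; some compounds called inactive have numbers as strong as hits; many hits fall short of the cut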
Target sequence (P11940 whole entry, looked up): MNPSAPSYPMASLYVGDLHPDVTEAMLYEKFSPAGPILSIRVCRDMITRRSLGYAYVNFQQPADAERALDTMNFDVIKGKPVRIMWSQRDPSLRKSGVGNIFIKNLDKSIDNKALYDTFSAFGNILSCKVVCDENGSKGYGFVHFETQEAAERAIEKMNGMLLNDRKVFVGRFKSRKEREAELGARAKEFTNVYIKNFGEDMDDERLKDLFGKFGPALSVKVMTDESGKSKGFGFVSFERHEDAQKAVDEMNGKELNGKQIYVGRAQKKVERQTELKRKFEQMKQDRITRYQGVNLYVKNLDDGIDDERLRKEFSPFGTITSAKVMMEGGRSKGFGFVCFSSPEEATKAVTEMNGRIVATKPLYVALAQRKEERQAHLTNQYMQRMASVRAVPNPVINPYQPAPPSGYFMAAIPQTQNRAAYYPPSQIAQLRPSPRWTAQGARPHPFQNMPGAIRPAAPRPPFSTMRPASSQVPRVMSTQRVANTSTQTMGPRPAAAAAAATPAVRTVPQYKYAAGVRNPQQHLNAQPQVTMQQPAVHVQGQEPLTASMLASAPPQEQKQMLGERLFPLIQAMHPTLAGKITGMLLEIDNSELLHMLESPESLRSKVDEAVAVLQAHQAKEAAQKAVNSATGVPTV
eIF4H inh: inhibitors of RNA binding by human eIF4H; Q15056; eIF4H fluorescence polarization binding assay; inhibition, % at 35 µM; hit rate 0.94% among 290,000; AID 2012;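 active means 50% or more with normal probe brightness, or confirmed in later tests; inconclusive means above 50% with abnormal brightness, or retests that disagree; inactive means below 50% or failed in later tests; about a fifth of its hits are not listed in these tables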;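 further: calls also rest on retests at 20 µM and on dose response follow-up; 0% = protein and probe with vehicle and 100% = probe without protein; strong numbers were not always called active; many hits fall short of the cut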
UUG fidelity: modulators of start codon recognition fidelity in yeast; S. cerevisiae UUG-firefly luciferase reporter, luminescence/redox ratio; activity score, % at 18.7 µM; hit rate 0.13% among 350,000;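 active means replicate mean at a twofold rise or more, about +100% in these data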;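 further: firefly luciferase made from a UUG start codon reports start codon fidelity; reporter light over untreated wells divided by growth signal over untreated wells; some hits fall short of that in this replicate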
eIF4H inh retest: further read-out of eIF4H inh, marked with its call; inhibition, %; compound at 20 µM; confirmation average;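 mean of two retest wells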
PABP polyA inh retest: further read-out of PABP polyA inh, marked with its call; inhibition, %; compound at 20 µM; confirmation repeats;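 mean of two retest wells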
MT1-MMP act inh RFP: also measured in MT1-MMP act inh; calls as there; RFP signal change, %; measured here: RFP expression control read;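 0 = vehicle wells; hits needed this value within 50% of zero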
An asterisk follows results filed as active; i = inactive; ? = inconclusive; . = not tested or not shown; & = joins results of further samples; [ ] = another dose, or the depositor's remark. Not all compounds are listed, so the mix of outcomes need not match the whole.

SMILES	MT1-MMP act inh	MT1-MMP act inh RFP	Rce1 inhib	Env fusion inh	CSC inhib	PABP polyA inh	eIF4H inh	UUG fidelity	others
COc1cc(NC(=S)N2CCCC2)cc(OC)c1	0.8	4.4	i	-8.7	-15.3	3.3	-8.8	-25.1
Cn1c(=O)c2c(nc(Oc3ccccc3Cl)n2C)n(C)c1=O	-6.4	-9.0	i	28.7	-7.9	2.7	0.1	.
COc1ccc(Cl)cc1NC(=O)NCCN1CCNC1=O	3.1	5.8	i	1.1	2.9	0.1	1.0	.
CN(C)CCCNC(=O)CC(c1ccc(F)cc1)c1ccco1 (configuration not stated)	-0.8	0.1	i	.	-3.7	4.8	-9.5	-7.7
CC(C)NCC(O)c1cc(O)cc(O)c1 (configuration not stated)	-4.1	0.9	i	7.6	-7.1	12.4	4.4	-9.1
CC(C)C(=O)Nc1cc2c3c(c1)CCC(=O)N3CCC2	1.6	4.7	i	-7.0	-13.0	6.2	-0.5	-11.6
CC1(C)NC(=S)NC1=S	-4.0	2.3	.	-20.8	.	.	.	-6.8
O=C(c1cc(Br)ccc1Cl)N1CCN(c2ncccn2)CC1	0.3	1.0	i	-5.3	8.2	2.0	4.9	-7.3
CCCCn1nc(C(=O)NCC(c2cccs2)N2CCOCC2)c2ccccc2c1=O (configuration not stated)	-3.2	-10.1	.	.	-8.7	.	.	11.3
COC(=O)Cc1cc(=O)oc2cc(OC)ccc12	4.7	0.7	i	.	-11.7	-7.7	-2.7	-12.3
COc1ccccc1C(=O)C1CCCN(C(=O)c2ccc(C(C)=O)s2)C1 (configuration not stated)	1.2	2.0	i	19.6	-8.9	0.3	-0.5	.
O=C(O)COc1ccc(-c2nc(-c3ccccc3)c(-c3ccccc3)[nH]2)cc1	-0.2	1.8	?	19.6	0.7	-0.4	2.4	-20.5
COCCc1nc2ccc(C(=O)N3CCCCC3COC)cc2o1 (configuration not stated)	4.6	-1.1	i	-0.5	-2.6	12.5	13.5	-9.8
CC(=O)Nc1ccc(Nc2cc(C)nc3c(-c4ccc(Cl)cc4)c(C)nn23)cc1	-2.1	-3.3	i	30.2	69.5	-2.7	-9.7	.
Cc1cccc(-c2noc(CSc3ccccc3)n2)c1	0.9	-0.5	i	-118.8	1.7	-2.7	5.3	-8.6
CCOc1ccc(-n2cc(C(=O)N3CCN(C)CC3)c3cc(OC)c(OC)cc3c2=O)cc1	-0.7	-2.6	i	.	.	1.5	0.7	-11.4
COc1ccc(C(=O)CNc2cccc(F)c2)cc1	4.3	5.0	i	-1.5	7.4	10.1	-20.1	-16.4
CCOc1ccc(S(=O)(=O)Nc2cccc(C(=O)N3CCN(c4cccc(OC)c4)CC3)c2)cc1	2.4	-4.3	i	35.4	0.3	.	.	-11.4
Cc1cc(=O)[nH]c(SCC(=O)N2CCCC(C)C2)n1 (configuration not stated)	1.8	6.7	i	-2.7	-6.7	-6.1	-3.6	-15.1
S=c1sc2c(Cl)ncnc2n1-c1ccccc1	-3.3	-4.7	i	-58.1	.	-0.7	-3.3	-32.5
CSc1cc(-c2ccc(Cl)cc2)n(Cc2ccccc2)c(=O)c1C#N	.	.	i	.	61.1	-0.3	-2.0	12.9
CN1CCN(NC(=O)c2cc(-c3ccccn3)nc3ccccc23)CC1	-6.7	-3.5	i	-4.4	.	69.4	3.4	.	eIF4H inh retest=-7.6;PABP polyA inh retest=-2.5
CC(=O)C1=C(O)C(=O)OC1c1ccc(Cl)cc1 (configuration not stated)	1.8	0.6	i	15.5	1.2	14.2	-15.1	-21.7
O=C(CCC(=O)N(CC(=O)NC1CCCCC1)c1ccc(F)cc1)Nc1ccccn1	2.7	6.2	i	17.8	-1.6	8.8	4.0	-18.8
COc1ccc(NC(=O)CN(C)C(=O)c2ccc(S(=O)(=O)N3CCOCC3)cc2)cc1	-1.1	1.2	.	-17.6	.	.	.	-10.6
O=C(COc1ccc2c(c1)CCC2)Nc1ccccn1	2.0	3.1	i	.	-8.7	.	.	-89.8
Cc1cc(NC(=O)COc2ccc3c(C)c(C)c(=O)oc3c2)no1	-1.2	0.7	.	-4.2	.	.	.	-11.5
Cc1ccccc1NC(NC(=O)c1cccs1)C(Cl)(Cl)Cl (configuration not stated)	-0.1	-2.7	i	.	3.9	-8.4	1.9	12.7
CCOC(=O)C1=NNC(C(=O)c2ccccc2)C1c1ccc(Cl)cc1 (configuration not stated)	0.7	1.6	i	12.6	-12.7	-5.0	3.8	.
COC(=O)C1CCN(C(=O)C2CCCCC2)CC1	2.1	5.0	i	-15.8	-12.0	-8.0	-6.2	-17.4
Cn1c(=O)oc2cc(S(=O)(=O)NCc3cccnc3)ccc21	-22.7	7.0	i	9.6	-11.5	23.6*	65.3	.	eIF4H inh retest=7.6;PABP polyA inh retest=89.2*
Clc1ccc(Cc2ccc(SCc3ccccc3)nn2)c(Cl)c1	1.9	-4.8	i	-102.4	19.4	-2.7	-3.8	-17.9
CSc1ncccc1C(=O)OCC(=O)Nc1nc(C)c(Cl)cc1Cl	0.9	4.6	.	1.4	-15.4	.	.	-6.4
COc1cc(C(=O)Nc2nc3ccc(C)cc3s2)ccc1OCc1c(C)noc1C	-1.6	-9.9	i	.	-0.5	-15.3	-6.9	-21.0
Cc1cc(=O)n2c3ccccc3n(C)c2n1	1.4	3.1	i	-13.3	.	10.4	-4.0	-22.3
Cc1ccc(S(=O)(=O)c2c(N)n(CCCN(C)C)c3nc4ccccc4nc23)cc1	-12.3	3.6	i	-5.9	.	-15.5	-11.6	2.7
COc1ccc(CNC(=O)CS(=O)(=O)Cc2nc(-c3ccc(OC)cc3)oc2C)cc1	-3.1	-4.6	i	-2.0	12.7	6.6	-11.0	-2.9
CC(C)Nc1nc(Nc2ccc(C(N)=O)cc2)c2sccc2n1	4.0	1.1	.	12.3	.	.	.	0.1
CC(C)(C)NC(=O)NC(=O)CN1CCN(S(=O)(=O)/C=C/c2ccccc2)CC1	0.6	-0.3	i	-4.6	.	2.0	-6.0	6.7
CCOc1ccc(C(=O)NCC(=O)N2CCCCCCC2)cc1	-3.9	1.1	.	.	-12.8	.	.	-2.4
CCOC(=O)c1ccc(NC2c3ccccc3C(=O)N2c2cccnc2)cc1 (configuration not stated)	-2.7	0.7	i	6.8	-10.0	-28.8	-4.8	4.9
COc1ccc(NC(=S)N2CCC(C(=O)c3ccc(Cl)cc3)CC2)cc1	1.2	1.0	.	7.1	.	.	.	-12.1
CC(=O)c1c(C)[nH]c(C(=O)OCC(=O)N(C)c2c(N)n(Cc3ccccc3)c(=O)[nH]c2=O)c1C	0.8	5.3	i	-8.8	-4.4	.	.	-1.2
Cc1cc(C)nc(SCCC(=O)Nc2ccccc2Cl)n1	2.9	0.1	i	0.3	2.8	2.8	1.1	.
Cc1cccc(C(=O)Nc2ccccc2C(=O)NCc2cccnc2)c1	3.2	7.1	i	12.7	-3.8	-4.2	-3.2	-0.8
COc1ccc(C(=O)N2CCC(C(=O)Nc3cccc(C)c3)CC2)cc1OC	6.4	0.0	i	.	-5.5	1.1	-6.6	-12.3
CCO[C@H]1OC(C(=O)N2CCN(C)CC2)=C[C@@H](c2ccc(Br)cc2)[C@@H]1CCCO	-3.9	0.6	i	-0.2[16.7 µM]	-5.7	-3.6	-3.5	0.4&-4.3
COc1cccc(NC(=O)c2ccccc2Oc2ccccc2)c1	1.1	-3.4	i	-30.3	-7.6	5.1	-5.5	-6.9

Compounds above containing a thiophene ring, fused or not:
SMILES	MT1-MMP act inh	MT1-MMP act inh RFP	Rce1 inhib	Env fusion inh	CSC inhib	PABP polyA inh	eIF4H inh	UUG fidelity	others
CCCCn1nc(C(=O)NCC(c2cccs2)N2CCOCC2)c2ccccc2c1=O (configuration not stated)	-3.2	-10.1	.	.	-8.7	.	.	11.3
COc1ccccc1C(=O)C1CCCN(C(=O)c2ccc(C(C)=O)s2)C1 (configuration not stated)	1.2	2.0	i	19.6	-8.9	0.3	-0.5	.
Cc1ccccc1NC(NC(=O)c1cccs1)C(Cl)(Cl)Cl (configuration not stated)	-0.1	-2.7	i	.	3.9	-8.4	1.9	12.7
CC(C)Nc1nc(Nc2ccc(C(N)=O)cc2)c2sccc2n1	4.0	1.1	.	12.3	.	.	.	0.1

(further entries)
SMILES	MT1-MMP act inh	MT1-MMP act inh RFP	Rce1 inhib	Env fusion inh	CSC inhib	PABP polyA inh	eIF4H inh	UUG fidelity	others
Nc1cc(=O)[nH]c2nnc(SCC(=O)Nc3cccc4ccccc34)n12	-0.3	1.9	i	-1.6	1.4	-4.8	-13.0	-6.4
O=C(COC(=O)CNC(=O)c1ccccc1Cl)Nc1cc(C(F)(F)F)ccc1Cl	4.6	2.7	.	-8.4	8.8	.	.	-0.9
CSc1ncccc1C(=O)OCC(=O)NCCCc1ccccc1	-2.6	4.3	.	8.2	-2.8	.	.	-3.7
COCCCNC(=O)CCN1N=C(c2ccccc2)CCC1=O	-4.3	2.3	i	-2.1	-7.9	-4.7	-5.6	10.9
COC(=O)c1ccccc1NC(=O)c1cc2ccccc2o1	-4.3	-2.5	i	-18.4	0.3	-4.3	5.8	-3.5
COc1cc(C(CCN2CCCC2)c2c(OC)cc(OC)c3c(-c4ccccc4)cc(=O)oc23)cc(OC)c1OC (configuration not stated)	2.5	-2.9	i	-27.7	-11.2	1.2	-13.6	-5.3
CCCCCCn1c(=O)c(F)cn(Cc2ccc(OC)c([N+](=O)[O-])c2)c1=O	4.2	5.1	i	.	-12.3	0.1	4.6	-9.1
COc1ccc(NS(=O)(=O)c2ccc3oc(Nc4ccc5c(c4)OCCO5)nc3c2)cc1	-8.0	-4.9	i	.	22.8	-0.1	-6.9	-10.7
Cc1cc(C(=O)COC(=O)c2ccccc2Br)c(C)n1CC1CCCO1 (configuration not stated)	-9.5	-5.7	i	-23.5	-16.6	5.5	-2.2	-86.0
Cc1ccc2nc(Cn3cc(C(F)(F)F)cc(Cl)c3=O)cc(=O)n2c1	-1.3	0.5	i	6.8	-10.6	1.1	0.7	-21.1
CC(C)(C)NC(=O)NC(=O)CSc1nnc(-c2ccccc2F)n1N	1.3	-1.4	i	.	-13.1	-5.7	-7.4	-3.8
O=C(O)CC(CC(=O)NCC(O)c1ccccc1)c1ccccc1 (configuration not stated)	-1.5	2.4	i	6.7	.	-11.2	-8.9	0.3
O=C(C1CC(=O)N(C2CCCC2)C1)N1CCN(c2ccc(F)cc2)CC1 (configuration not stated)	2.3	0.1	i	2.3	.	.	.	4.4
Cc1ccc(-c2cc(C(F)(F)F)n3ncc(C(=O)NCc4ccco4)c3n2)cc1	-1.2	-2.7	i	.	4.3	14.6	-5.7	-5.4
CC(C)CC1NC(=O)N(CC(=O)N2c3ccccc3NC(=O)C2(C)C)C1=O (configuration not stated)	4.0	5.4	i	-7.4	0.7	6.4	2.1	-13.8
O=C(Cn1cnc2ccccc2c1=O)NCCCN1CCCC1=O	3.4	2.2	.	-2.0	.	.	.	10.6
Cc1cccc(N/N=C/c2ccccc2O)c1	7.5	-4.4	i	-12.3	94.1*	10.5	5.2	-3.9
CC12CC(c3ccccc3O1)N(C(=O)c1ccco1)C(=S)N2c1ccccc1 (configuration not stated)	-3.3	2.7	i	-152.1	-0.1	2.7	-2.5	-14.0

Screening data (PubChem)
